High-throughput results: PubChem, several laboratories
RGS16-Gao HTS – modulators of RGS16 binding to Galphao, primary screen, biochemical, human proteins, multiplexed bead flow cytometry; bead-based flow cytometry RGS16-Galphao binding, fluorescence; actives lie on both sides; 220,000 tested, 0.38% active; binding response (% of control), % at 10 µM; AID 1441, 2008;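 active means below 25% or above 175%, edge rows of some plates excepted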;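 further: Galphao activated by GDP with aluminum fluoride before binding; 100% = wells without compound and 0% = beads without RGS; some results beyond the cut were filed as inactive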
Target sequence (O15492 whole entry, looked up): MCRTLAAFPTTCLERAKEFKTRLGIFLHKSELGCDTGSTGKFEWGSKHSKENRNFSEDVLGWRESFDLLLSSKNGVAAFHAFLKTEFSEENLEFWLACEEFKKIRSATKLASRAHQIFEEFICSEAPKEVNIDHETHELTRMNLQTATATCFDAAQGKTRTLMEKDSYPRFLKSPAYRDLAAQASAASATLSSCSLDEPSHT
Target sequence (P09471 whole entry, looked up): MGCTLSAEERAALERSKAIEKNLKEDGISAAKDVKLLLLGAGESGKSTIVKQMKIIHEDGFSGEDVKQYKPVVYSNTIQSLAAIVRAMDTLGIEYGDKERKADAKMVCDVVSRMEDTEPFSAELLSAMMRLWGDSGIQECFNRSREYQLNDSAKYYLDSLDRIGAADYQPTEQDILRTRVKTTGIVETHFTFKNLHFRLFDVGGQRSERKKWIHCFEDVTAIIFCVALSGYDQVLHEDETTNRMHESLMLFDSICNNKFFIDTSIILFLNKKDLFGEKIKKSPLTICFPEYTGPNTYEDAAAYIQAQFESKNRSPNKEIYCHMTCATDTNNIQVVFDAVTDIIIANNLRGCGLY
GALR2 ag – GALR2 receptor agonists, primary screen, cell-based. GALR2-expressing cells, agonist activation read-out. activation, %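 (tested at 5 µM)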. 140,000 tested, 0.48% active;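 active means above mean plus 3 SD of all compounds, about 5% in these data, not always enough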;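 further: 0% = vehicle buffer wells and 100% = reference agonist at full effect; tested in CHO reporter cells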
Target sequence (O43603 whole entry, looked up): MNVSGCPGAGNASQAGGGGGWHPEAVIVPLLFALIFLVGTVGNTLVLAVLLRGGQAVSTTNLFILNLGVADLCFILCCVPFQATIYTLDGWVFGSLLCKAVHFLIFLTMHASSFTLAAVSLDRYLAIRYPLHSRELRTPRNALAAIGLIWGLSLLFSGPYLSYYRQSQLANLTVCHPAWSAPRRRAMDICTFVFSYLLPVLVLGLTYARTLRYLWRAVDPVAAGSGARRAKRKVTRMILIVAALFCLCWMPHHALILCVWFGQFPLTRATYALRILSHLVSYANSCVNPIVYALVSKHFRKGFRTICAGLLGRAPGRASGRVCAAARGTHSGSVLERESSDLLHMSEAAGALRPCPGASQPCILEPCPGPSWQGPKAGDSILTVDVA
PKD1 kinase inh – inhibitors of human PKD1 kinase, biochemical, fluorescence polarization; PKD1 kinase fluorescence polarization assay; inhibition, %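 (about 10 µM by stock and volumes)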; 200,000 tested, 0.056% active; Serine/threonine-protein kinase D1 (Homo sapiens), Q15139;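 active means inhibition of 50% or more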;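 further: controls were vehicle for no effect and a reference inhibitor for full effect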
INS promoter inh – inhibitors of insulin promoter-driven GFP, primary screen, imaging, TRM-6 cells (human fetal islet line), eGFP reporter, cell count. reporter expression induced with tamoxifen. inhibition, % at 2 µM. 130,000 tested, 0.9% active. AID 1273, 2008;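 active means inhibition above the mean plus 3 SD, with well images judged a real hit on visual review, cut at about 60% in these data, passing the limit was not always enough; inconclusive means inhibition over the cutoff but images rejected on review; inactive means inhibition not above the cutoff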
HSV augment – enhancers of HSV replication in host cells, fold increase, host cell viability; HSV replication augmentation in cells; maximum fold increase; 220,000 tested, 0.005% active;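 active means peak rise of 1.5-fold or more in the series; inconclusive means self-fluorescent or not available for retest; tested in PC3 cells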;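 further: first round at 10 µM; read as green reporter fluorescence; hits show the peak of a series up to 25 µM; 1 = signal of infected wells without compound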
INS promoter inh cell count – second read-out of INS promoter inh, no call of its own (marks repeat the call); normalized cell count, %; measured here: cell count, toxicity; reference of the scale not given here;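 cells exposed to compound for 48 h; stained nuclei by imaging scaled within each plate; lower means fewer cells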
HSV augment primary fold – also measured in HSV augment; calls as there; fold increase; compound at 10 µM; measured here: primary screen fold increase 10 uM; tested in PC3 cells;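 GFP signal in the first replicate; 1 = infected wells without compound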
Starred values were filed as active, the others as inactive; i = inactive; ? = inconclusive; . = no result given.

SMILES	RGS16-Gao HTS	GALR2 ag	PKD1 kinase inh	INS promoter inh	INS promoter inh cell count	HSV augment	HSV augment primary fold
Cc1c(C(=O)O)cccc1-c1ccc(C=O)o1	105	0.4	-6	.	.	i	1
COC(=O)C1=NNC2C(=O)N(c3ccc(C)cc3)C(=O)C12 (configuration not stated)	102	.	0	40	88	i	0.97
O=C(CCSCCC(=O)NCc1ccccc1)NCc1ccccc1	102	-2.4	-9	0	191	i	0.8
CSc1ccccc1NC(=O)c1cc(-c2cccs2)on1	104	-1.1	-10	.	.	i	0.93
O=C(CN1CCN(c2ccccn2)CC1)Nc1ccccc1	108	-0.4	-5	11	164	i	1
COCc1cc(C)c2c(N)c(C#N)sc2n1	100	-1.8	2	4	67	i	1
CCOc1ncccc1C(=O)N(C)CC(=O)Nc1ccc(F)cc1	143	-0.6	7	29	87	i	0.92
Cc1noc(C)c1S(=O)(=O)N1CCC(C(=O)NCCN2CCC(C)CC2)CC1	97	-0.9	4	-48	92	i	1.1
O=c1c(N2CCOCC2)nsnc1N1CCOCC1	89	-0.7	-2	9	131	i	0.82
COc1cccc(CN(C(=O)c2ccco2)C(C(=O)NC2CCCC2)c2cccnc2)c1 (configuration not stated)	105	-0.3	-1	.	.	i	1
Cc1ccc(S(=O)(=O)N2CCC(=O)N(CCOCc3cccc(F)c3)CC2)cc1	98	-0.8	2	-45	107	i	0.78
CCc1ccc(NC(=O)c2ccccc2SC)cc1	99	.	-1	.	.	i	0.7
Cc1nn(C(=O)c2ccco2)c(C)c1Br	100	-2.6	-2	67*	68*	i	0.94
CCn1c(-c2cc(OC)c(OC)c(OC)c2)n[nH]c1=S	85	-1.4	2	.	.	i	1
O=C(O)CSc1nnc(COc2cccc3cccnc23)n1-c1cccc(C(F)(F)F)c1	105	.	-1	19	92	i	1
CCCC1C2CN(C(C)C)CC=C2C(C#N)=C(N)C1(C#N)C#N (configuration not stated)	103	3.8	-7	.	.	.	.
CC1S/C(=N/N=C/c2ccco2)NC1=O (configuration not stated)	103	-2.9	1	.	.	i	0.91
C=CCc1cc(C)ccc1OCCCC(C(=O)OCC)C(=O)OCC	101	0.4	-5	8	108	.	.
Cc1ccc(S(=O)(=O)NC2=NCN(CCN3CCOCC3)CN2)cc1	98	-4.2	0	29	120	i	0.92
O=S(=O)(NC1=NCCCCC1)c1ccc2ccccc2c1	107	0.4	-4	-25	91	i	0.78
COc1ccc(CNC(=O)CN(C(=O)CCC(=O)Nc2ccccn2)c2cccc(C)c2)cc1	99	.	-4	14	141	i	0.9
COC(=O)c1c(NC(=O)COC(=O)CNC(=O)c2ccco2)sc(C)c1C	87	-1.4	-2	.	.	i	0.9
COc1ccc(N=Cc2cccc(C)c2O)cc1Cl	96	-0.1	-2	.	.	i	0.98
CC(C)=CCCC1=CCC(/C=N/NC(N)=O)C(C)C1 (configuration not stated)	134	-0.4	0	-3	99	i	1
CCCn1nc(C(=O)NCCN2CCOCC2)c2ccccc2c1=O	109	-1.4	10	-27	90	i	0.75
S=C(c1ccc2c(c1)OCO2)N1CCCCCC1	102	-0.7	-11	-64	145	i	0.86
COc1ccc(C(=O)N2CCCCC2)cc1S(=O)(=O)Nc1ccccc1	100	-1.4	-13	.	.	.	.
CCOC(=O)c1ccc(N2C(=O)C3C(/C=C/c4ccccc4)OC4(C(=O)c5ccccc5C4=O)C3C2=O)cc1 (configuration not stated)	105	-0.4	-8	25	99	i	0.85
CCOC(=O)c1ccc(NC(=O)CSc2nc3sc(C(=O)O)c(C)c3c(=O)[nH]2)cc1	98	.	-3	.	.	i	1
COc1ccc(OC)c2[nH]c(=O)c(CCNC(=O)c3cccs3)cc12	99	.	2	-63	122	i	1
CCN(CC)S(=O)(=O)c1ccc(OC)c(NC(=O)CSc2cc(Cl)ccc2Cl)c1	108	-2.3	1	22	100	i	0.9
CC1(CC(=O)N/N=C/c2ccc(OCc3ccc(Cl)cc3Cl)cc2)OCCCO1	103	-1.6	16	.	.	i	0.8
O=c1[nH]c2ccccc2nc1/C=C/c1ccccc1	100	.	-1	.	.	i	0.93
Fc1ccccc1-n1cc(-c2ccccc2)[nH]c1=S	100	.	-2	.	.	i	0.92
CC(C)Oc1cccc(C(=O)NC(=S)Nc2cccc(C(F)(F)F)c2)c1	101	-2.0	-1	.	.	i	0.77
O=C(CSc1ncn[nH]1)N1CCOCC1	104	.	4	.	.	i	0.84
CCN(CC)C(=O)C(C)N(C#N)c1nc(NC(C)C)nc(NC(C)C)n1 (configuration not stated)	107	-2.3	-8	7	168	i	0.79
COc1ccc(C(=O)NC(NC(=O)c2ccc(OC)cc2)c2ccccc2F)cc1	101	.	-5	12	123	i	0.77
CC(C)(C)c1[nH]nc2c1C(Cc1ccccc1)C(C#N)=C(N)O2 (configuration not stated)	104	0.8	10	0	91	i	0.88
CC(C)c1cccc(C(C)C)c1NC(=O)Cn1c(=O)cnc2ccccc21	111	-1.6	-5	-8	118	i	1.1

Looked up by compound from above:
SMILES	RGS16-Gao HTS	GALR2 ag	PKD1 kinase inh	INS promoter inh	INS promoter inh cell count	HSV augment	HSV augment primary fold
CCN(CC)S(=O)(=O)c1ccc(OC)c(NC(=O)CSc2cc(Cl)ccc2Cl)c1	108	-2.3	1	22	100	i	0.9
O=C(CSc1ncn[nH]1)N1CCOCC1	104	.	4	.	.	i	0.84
CC1(CC(=O)N/N=C/c2ccc(OCc3ccc(Cl)cc3Cl)cc2)OCCCO1	103	-1.6	16	.	.	i	0.8
O=c1[nH]c2ccccc2nc1/C=C/c1ccccc1	100	.	-1	.	.	i	0.93

2 entries from above, comma-delimited.
mol,RGS16-Gao HTS,GALR2 ag,PKD1 kinase inh,INS promoter inh,INS promoter inh cell count,HSV augment,HSV augment primary fold
CC(C)(C)c1[nH]nc2c1C(Cc1ccccc1)C(C#N)=C(N)O2 (configuration not stated),104,0.8,10,0,91,i,0.88
CC(C)c1cccc(C(C)C)c1NC(=O)Cn1c(=O)cnc2ccccc21,111,-1.6,-5,-8,118,i,1.1

Next part.
SMILES	RGS16-Gao HTS	GALR2 ag	PKD1 kinase inh	INS promoter inh	INS promoter inh cell count	HSV augment	HSV augment primary fold
CC(C)CC1=NN2C(=N)/C(=C\c3coc4ccccc4c3=O)C(=O)N=C2S1	76	.	-1	-8	98	?	.
O=C1c2ccccc2-c2c1cccc2C(=O)N1CCCCC1	105	-0.7	0	-23	36	i	0.97
O=c1[nH]c(SCc2nc3c(cnn3-c3ccccc3)c(=O)[nH]2)nc2ccccc12	102	-2.1	-7	.	.	i	0.85
O=C(Nc1ccc(N2CCCC2)c(Cl)c1)c1cccc(-c2cc3ccccc3oc2=O)c1	97	-0.7	1	.	.	i	0.88
Cc1ccc(OCc2nnc(NC(=O)Cc3cccs3)s2)cc1	69	-0.8	-9	5	110	i	1.1
CCOC(=O)c1nc2cc3n(c(CC(C)C)c-2c1C)CC(C)=C3C	103	-1.2	-6	-131	156	i	0.96
COc1ccc(N2CCN(C(=O)NC3CCCCC3)CC2)cc1	106	-1.0	1	.	.	i	1
COc1ccc2nc(N/C(=N/S(=O)(=O)c3cccs3)c3ccccc3Cl)sc2c1	99	.	-7	.	.	i	0.78
Cc1[nH]c2ccccc2c1C(=O)CN1CC(C)OC(C)C1 (configuration not stated)	85	.	.	.	.	i	0.95
COc1ccc2nc(-c3ccc(Cl)cc3)cc(C(=O)O)c2c1	105	.	.	.	.	i	1.1
COc1cc2c(cc1OC)C(c1cc3cc4c(cc3[nH]c1=O)OCO4)N(C(=O)C1CC1)CC2 (configuration not stated)	104	-0.8	0	56	75	i	1
O=C(/C=C/Nc1ccccc1)C(F)(F)F	103	.	-9	-73	106	i	0.99
COc1cc(S(=O)(=O)n2nnc3ccccc32)c(OC)cc1Cl	101	-2.8	1	52	105	i	0.93
O=c1c2ccccc2ncn1Cc1ccc(Cl)cc1	115	.	6	.	.	i	1
C=CCSc1nccc(=O)[nH]1	104	-2.1	-7	-4	134	i	0.97
CCC1(C)Cc2c(sc3nc(SC)n(Cc4ccccc4)c(=O)c23)CO1 (configuration not stated)	112	-3.2	4	27	61	i	0.99
Cc1cc(C(C)(C)C)oc1C(=O)Nc1ccc(CC(=O)O)cc1	62	-0.7	-5	25	109	i	1
CCOC(=O)C1=C(c2ccccc2)NC(=O)NC1c1ccc(OC)c(OC)c1 (configuration not stated)	109	.	-8	-17	116	i	0.97
CSCCC(NS(=O)(=O)/C=C/c1ccccc1)C(=O)NCCc1ccc(S(N)(=O)=O)cc1 (configuration not stated)	103	.	.	.	.	i	0.98
Cc1ccc(-c2nnc3sc(-c4ccncc4)nn23)cc1	101	-0.9	-4	71	118	i	0.91
O=C(O)C1CCCCC1C(=O)Nc1cc(Cl)ccc1Cl (configuration not stated)	99	-2.8	8	46	136	i	0.89
Cc1csc(NC(=O)[C@@H]2CCCN2C(=O)c2cccs2)n1	107	.	0	-11	104	i	1
Cc1ccc(SC(=O)COc2ccccc2C)cc1	102	-0.1	2	28	77	i	0.95
Cc1cc(C(F)(F)F)nc2c(Cl)c(C(C)(C)C)nn12	107	.	.	.	.	i	1
O=C(CCCn1cc([N+](=O)[O-])cn1)Nc1cccnc1	99	.	.	.	.	i	1
O=C(NCc1nc2ccccc2[nH]1)C1=C[C@H](c2ccccc2)C[C@H](OCCCCO)O1	91	.	.	.	.	i	0.81
O=C1CC(CSc2ccc(Cl)cc2)=NN1	93	.	.	.	.	i	0.87
COc1cccc(/C=N/NC(=O)CO/N=C(\C)c2cccs2)c1OC	93	-1.9	0	-86	207	i	0.81
O=C(Nc1ncc(Cc2cccc(C(F)(F)F)c2)s1)c1ccc(-c2cccc([N+](=O)[O-])c2)o1	115	1.5	6	.	.	i	0.97
O=C(CC(c1ccco1)C1CCCCC1=O)c1ccco1 (configuration not stated)	103	-1.7	1	.	.	i	1
COc1ccc(N(CC(=O)NCCSCc2c(F)cccc2Cl)S(C)(=O)=O)cc1OC	100	1.3	4	-7	87	i	1
Cc1nn(C)c(C)c1NS(=O)(=O)c1ccc(N2CCCC2=O)cc1	100	.	-8	.	.	i	0.83
COc1ccc(N(CC(=O)NC2CCCC2)C(=O)Cn2nnc(-c3ccc(C)cc3)n2)cc1	99	0.6	1	3	110	i	1.1
CC(=O)c1ccc(Oc2ncnc3sccc23)cc1	102	.	1	7	111	i	0.94
CCc1nc(CN2CCCC(C(=O)c3ccc4c5c(cccc35)CC4)C2)c(C)[nH]1 (configuration not stated)	99	.	7	-14	112	i	0.91
OCCC1CN(Cc2nc(-c3ccc(F)cc3)cs2)CCN1CCc1ccccc1 (configuration not stated)	91	.	-2	.	.	i	0.8
CCOc1ccccc1N(C(=O)c1snc(C(N)=O)c1N)C(C(=O)NC1CCCC1)c1ccco1 (configuration not stated)	98	0.8	-4	.	.	.	.
CN(C)CCN1C(=O)C(=O)/C(=C(/O)c2ccc3c(c2)OCCO3)C1c1ccccn1 (configuration not stated)	91	.	.	.	.	i	1.1
CCCCNC(=O)C1COc2ccccc2O1 (configuration not stated)	105	-0.9	3	.	.	i	0.94
CCOC(=O)CC1C(=O)NCCN1C1CCCC1 (configuration not stated)	100	.	-6	.	.	i	1.1
N#Cc1ccc(CSCC(=O)O)cc1	98	-1.1	-6	.	.	i	0.63
COc1cc2nc(SCC(N)=O)n(CCC3=CCCCC3)c(=O)c2cc1OC	107	-1.7	17	.	.	i	0.66
CC(c1ccccc1)N1CC(C(=O)NC2CCCC2)CC1=O (configuration not stated)	92	0.2	-6	.	.	i	0.87
Cc1ccc(/C=c2\sc3nc(-c4ccco4)nn3c2=O)o1	88	-2.2	4	.	.	i	0.96
O=C(Nc1ccc(Br)cc1)c1ccc(F)c(S(=O)(=O)NCc2cccs2)c1	101	-1.1	-5	.	.	i	0.94
Cc1ccnc(SCc2ccc([N+](=O)[O-])cc2)n1	103	.	-3	.	.	i	1
CN(C)C(CNC(=O)C1CCCN(C(=O)c2ccc(Cl)cc2)C1)c1ccco1 (configuration not stated)	102	-1.1	-3	.	.	i	1
O=c1c2ccccc2sn1-c1cc(S(=O)(=O)N2CCOCC2)ccc1N1CCOCC1	0.6*	-2.8	-1	7	80	i	0.77
CCCCCn1c2c(c(=N)c3ccccc31)CCC2	100	.	.	.	.	i	0.89

Copied from the list.
RGS16-Gao HTS, COc1cccc(CN(C(=O)c2ccco2)C(C(=O)NC2CCCC2)c2cccnc2)c1 (configuration not stated) is entered as 105
RGS16-Gao HTS, COc1cc(S(=O)(=O)n2nnc3ccccc32)c(OC)cc1Cl is entered as 101
HSV augment primary fold, O=C(NCc1nc2ccccc2[nH]1)C1=C[C@H](c2ccccc2)C[C@H](OCCCCO)O1 is entered as 0.81
RGS16-Gao HTS, Cc1c(C(=O)O)cccc1-c1ccc(C=O)o1 is entered as 105

Random draw from the library; overall some 1.3% were active at least once.
